Vaccinia Venus = inhibitors of vaccinia virus (Venus reporter). Vaccinia virus Venus reporter expression, fluorescence. Potency, µM (series often up to 36.5 µM), for inactives: at the top dose activity change, negative = inhibition, usual class: inhibitors. 330,000 compounds, 0.46% hits; active means well fitted inhibition curve with a large enough effect; inconclusive means small, poorly fitted or top-dose-only effect; inactive means no such curve, though single readings can be large or run the other way; tested in A549 cells; also: nearly all actives have a fitted effect of over 30% in size; inactives centre near -10
VACV mCherry inh = vaccinia inhibition (mCherry reporter). 310,000 compounds, 0.63% hits. Potency, µM (doses to about 36.5 µM), without a hit: at the highest dose activity change, negative = inhibition, actives largely listed as inhibitors. Vaccinia virus mCherry reporter infection, fluorescence; about a quarter of the inactives have no number. AID 720579; active = well fitted inhibition curve with a large enough effect; inconclusive = small, poorly fitted or top-dose-only effect; inactive = no such curve, though single readings can be large or run the other way; tested in A549 cells; also: nearly all actives have a fitted effect of over 35% in size; inactives centre near -10
The depositor's hits bear a star; i = inactive; ? = inconclusive; / = no result given; & = joins results of further samples; [ ] = remark or other dose. % is scaled to controls: 0 for no effect and ±100 for the full control effect; potency is read from the fitted curve at half-maximal effect.

SMILES | Vaccinia Venus | VACV mCherry inh
O=C(COc1coc(CN2CCN(c3ccc(F)cc3)CC2)cc1=O)NCC1CCCO1 (centres undefined) | 20% | -4%
Cc1ccc2nc(-c3ccc(F)cc3)c(Cc3ccccc3C(F)(F)F)n2c1 | -7% | 29%
Cc1nn(C)cc1CN1CCOc2ccc(CN3CCC(Oc4cccnc4)CC3)cc2C1 | -9% | -14%
O=C(NCc1cccnc1)Nc1cccc(Cl)c1Cl | -15% | -19%
COCCNc1ccc(-c2nc(-c3cccc(C)c3)no2)cc1[N+](=O)[O-] | -3% | -5%
COc1ccc(C(=O)O/N=C(\N)c2ccccc2)cc1 | -7% | -14%
COC(=O)[C@@]1(Sc2ccc(C)cc2)CC(=O)N(c2cccc(SC)c2)[C@@H]1c1ccccc1 | -20% | -4%
Nc1ccnc(=O)[nH]1 | -12% | i
Cc1cccc(N/C(=N\S(=O)(=O)c2ccccc2)C(F)(F)F)c1 | 6% | -1%
CCCN(CC(=O)Nc1ccccc1C)C(=O)c1ccc(N2CCCCCC2)c([N+](=O)[O-])c1 | -14% | i
CCC[C@@H](CN1CCC[C@H]1CN1C(N)=NC[C@H]1CC(C)C)N1C[C@@H]([C@H](C)CC)N(CCc2ccc(Cl)c(Cl)c2)C1=N | 0% | -11%
CCc1nc(NCc2ccco2)c2oc3ccccc3c2n1 | -21% | -10%
COC(=O)CCC(C(=O)CN1C(=O)c2ccccc2C1=O)N1C(=O)c2ccccc2C1=O (centres undefined) | -6% | -12%
Cc1ccc(NC(=O)c2ccc(OC(=O)COc3cccc(Cl)c3)cc2)cc1 | -1% | i
COc1c(O)c(O)c2oc(-c3ccccc3)cc(=O)c2c1OC | -2% | -9%
CCN1CCN(c2ccc(S(=O)(=O)N3CCCCC3)cc2NC(=O)c2cccc(F)c2)CC1 | -10% | -3%
COc1ccc2c(c1)OC[C@H]1[C@H]2N2C(=O)c3cc(C)ccc3NC(=O)[C@@]2(C)[C@H]1c1ccccc1 | ? | -2%
C#CCOCCOCCOCCNc1nc(N2CCN(C(=O)Cn3cc(CCCN=C(N)N)nn3)CC2)nc(N2CCN(C(=O)[C@H](CCCCN)n3cc(CCCC)nn3)CC2)n1 | -11% | i
COC(=O)Cn1ccc2cc(S(=O)(=O)N3CCCCCC3)ccc21 | -9%&-3% | -26%&5%
CC(C)=CCC[C@](C)(O)C1CC[C@]2(C)C1C(O)CC1[C@@]3(C)CCC(O)C(C)(C)C3C(O[C@@H]3OC(CO)C(O)C(O)C3O[C@@H]3OC(C)C(O)C(O)C3O)C[C@]12C (some centres undefined) | -8% | -2%
O=CN1CCN(S(=O)(=O)c2ccc(S(=O)(=O)NC3CCCCC3)cc2)CC1 | -8% | -6%
COc1ccc(CNC(=O)CN(Cc2ccc(F)cc2)C(=O)c2csnn2)cc1 | -3% | -10%
Cc1ccc(Cn2ncc3c(NCCCN4CCOCC4)ncnc32)cc1 | -7% | /
Cc1nnc(NC(=O)CSCc2c(C)noc2C)s1 | -14% | -9%
O=C1C(=Cc2ccccc2[N+](=O)[O-])Cc2ccccc21 | ? | ?
CCN1C(=O)/C(=C/C=C2/Sc3ccc4ccccc4c3N2CCO)SC1=S | 46%[activator] | 29%
Cc1cc(C(=O)NNc2ccccc2F)no1 | -4% | -4%
O=C(NN1C(=O)/C(=C\c2cccnc2)SC1=S)C(c1ccccc1)c1ccccc1 | -16% | -20%
Cc1ccc(C(=O)CNc2ccc(Cl)cc2)cc1 | -19% | ?
Cc1ccccc1OCc1nc2ccccc2c(=O)n1NC(=O)c1ccco1 | -11% | /
COc1ccc(NC(=O)c2cc(-c3cc(C)cc(F)c3)n[nH]2)cc1OC | -7% | 21%
O=C(/C=C/c1ccc(Cl)cc1)NC1CCS(=O)(=O)C1 (centres undefined) | 3% | 0%
Nc1c(NCCN2CCOCC2)c2ccccc2oc1=O | ? | /
COc1ccc(S(=O)(=O)NCCc2sc(-c3cccnc3)nc2C)c(F)c1 | 5% | -2%
CCOC(=O)CC1C(=O)NCCN1C(=O)c1c(Cl)cccc1Cl (centres undefined) | -3% | i
COc1ccccc1/C=C1\SC(=S)N(CCC(=O)NNC(=O)c2ccccc2OC)C1=O | 1% | -9%
Cc1ccccc1-c1nc(CS(=O)(=O)CC(=O)NCCCN2C(C)CCCC2C)c(C)o1 (centres undefined) | -15% | i
CCOC(=O)C1CCN(C(=O)Cn2nc(CC)n3c(cc4sccc43)c2=O)CC1 | -6% | -22%
O=C(O)C1=C[C@@H](c2ccc(C(F)(F)F)cc2)C[C@@H](OCCCCO)O1 | -5% | i
c1ccc(-c2noc(CCC3CCCC3)n2)cc1 | -8% | -1%
O=C(NC1CCCC1)C(c1ccco1)N(C(=O)c1csnn1)c1ccccc1 (centres undefined) | -4% | -6%
CSc1ccc(/C=N/NC(=O)CN2CCN(Cc3ccccc3)CC2)cc1 | -5% | -14%
O=C(NCc1cccnc1)c1cccc(S(=O)(=O)N2CCCCC2)c1 | -16% | -6%
COc1cccc(NC(=S)N(CCCN2CCCC(C)C2)Cc2cccs2)c1 (centres undefined) | -16% | -10%
O=C(Cn1c(C(F)(F)F)nc2ccccc21)OCC(=O)c1c[nH]c2ccccc12 | -6% | i
CC(Sc1nnc(-c2ccco2)n1C)C(=O)N1C(C)CCCC1C (centres undefined) | -17% | -16%
CCOC(=O)c1ccc(NC(=S)Nc2cccc(C)n2)cc1 | -2% | -1%
COc1cc(-c2cc(OC)c3c(C)oc(C)c3c(=O)c2)ccc1OC(=O)c1ccccc1F | 10% | -4%
NC(=O)C1(N2CCCCC2)CCN(C(=O)c2cc(COc3c(F)cccc3F)on2)CC1 | -6% | i
CCCCCCN1C[C@@H](n2cc(C3CC3)nn2)[C@H](O)C[C@@H]1c1ccccc1 | -9% | -6%
COc1ccc(CCc2ccnc3ccccc23)cc1 | -19% | -12%
CCCNC(=O)c1cc2n(n1)CCCN(Cc1ccc(F)cc1)C2=O | -6% | -9%
Cc1cnc(C(=O)NC2CC(C)(C)Cc3c2cnn3-c2ccccc2)cn1 (centres undefined) | -14% | -16%
CCN1CCCC1CNC(=O)CS(=O)(=O)Cc1nc(-c2ccccc2C)oc1C (centres undefined) | -2% | 26%
COc1cccc(C(=O)Nc2cc3c(cc2C(=O)c2ccc(C)cc2)OCCO3)c1 | 6% | 7%
COCCCn1c(=N)c(C(=O)NCc2cccnc2)cc2c(=O)n3cccc(C)c3nc21 | -9% | -4%
C[C@H](NC(=O)C[C@@H]1C=C[C@@H](NC(=O)CN2CCOCC2)[C@@H](CO)O1)c1ccccc1 | -14% | -10%
CCCCOc1ccc(C(=O)NCC(=O)NCc2ccccn2)cc1 | -21% | -26%
CC(OC(=O)CCSc1ccccc1)C(=O)Nc1ccc(S(N)(=O)=O)cc1 (centres undefined) | 0% | -24%
CC(C)N(C(=O)CSc1nc2ccccc2n1Cc1ccccc1)C(C)C | -7% | -12%

Following part
SMILES | Vaccinia Venus | VACV mCherry inh
Cc1ccc(S(=O)(=O)N2CCCCC2C(=O)Nc2ccc(N(C)C)cc2)cc1 (centres undefined) | 6% | ?
COc1ccccc1CN(C)C(=O)c1cccc(S(=O)(=O)N2CCN(Cc3ccccc3)CC2)c1 | -17% | -2%
COC(=O)[C@@]12CCCCN1[C@H](c1ccc(-c3ccc(Cl)c(Cl)c3)c(OC)c1)[C@@H]1C(=O)N(C)C(=O)[C@@H]12 | ? | ?
O=c1c2cc(Br)ccc2nc(-c2cccc(C(F)(F)F)c2)n1O | -28% | ?
CC1CCCN(S(=O)(=O)c2ccc3c(c2)c(=O)nc2ccc(Cl)cn23)C1 (centres undefined) | -5% | 0%
O=S(=O)(/N=C(/Nc1ccccc1)C(F)(F)F)c1ccccc1 | -7% | i
Cn1c(=O)oc2cc(S(=O)(=O)NCc3ccco3)ccc21 | -9% | i
Cc1cc(C)cc(NC(=O)Nc2ccccc2N2CCCCC2)c1 | -16% | -5%
Cc1ccc(NC(=O)c2oc3ccccc3c2NC(=O)c2cc3ccccc3o2)cc1 | -5% | -11%
COc1ccc(-c2cnnc(N/N=C/c3ccc(O)c(O)c3)n2)cc1 | -22% | -4%
O=C(Cc1nc2ccccc2[nH]1)c1ccc(Cl)cc1 | -12% | -9%
COc1ccc(OC)c(S(=O)(=O)Nc2ccccc2C(=O)N2CCCCC2)c1 | -11% | -14%
Cc1cc(Br)cn2c(Cc3cccc(F)c3)c(-c3cccc(Br)c3)nc12 | -12% | 14%
CCOC(=O)Cc1ccc(Nc2nc(NC)nc3ccsc23)cc1 | 19% | -21%
CC(=O)N(C)N1c2ccccc2CCc2ccccc21 | -3% | -7%
CCOc1cc(C(=O)N2CCOCC2)ccc1OCc1ccccc1 | -16% | -13%
CC(=O)Nc1ccc(S(=O)(=O)N(Cc2ccccc2)c2ccccc2F)cc1 | -11% | -5%
c1ccc2cc(CN3CCOCC3)ccc2c1 | -4% | -10%
C[C@@H]1CN([C@@H](C)CO)C(=O)CCCn2nncc2CO[C@H]1CN(C)Cc1ccc(-c2ccccc2)cc1 | -28% | -21%
COc1ccc2c(c1)C(c1ccc([N+](=O)[O-])cc1)=NNC(c1ccco1)=N2 | -1% | -6%

By substructure, those above with bromine (2)
SMILES | Vaccinia Venus | VACV mCherry inh
O=c1c2cc(Br)ccc2nc(-c2cccc(C(F)(F)F)c2)n1O | -28% | ?
Cc1cc(Br)cn2c(Cc3cccc(F)c3)c(-c3cccc(Br)c3)nc12 | -12% | 14%

(further entries)
SMILES | Vaccinia Venus | VACV mCherry inh
COc1ccc(-c2nn3c(=O)cc(CN4CCN(C(=O)c5ccc(C(C)(C)C)cc5)CC4)nc3s2)cc1 | -10% | -11%
O=C(COC(=O)c1ccccc1NC(=O)c1ccccc1)c1ccc([N+](=O)[O-])cc1 | 6% | /
Cc1ccc(-c2nc(N)sc2CC(=O)OCC(=O)NCCC(C)C)cc1 | -6% | -4%
Cn1c(SCc2ccc(Br)cc2)nnc1-c1ccncc1 | -19% | -22%
O=C(OCc1ccccc1)c1cccc(-c2nnn(Cc3ccccc3)n2)c1 | -23% | -23%
CO[C@@H]1CN(C)C(=O)c2ccc(NC(=O)C3CCCC3)cc2OC[C@@H](C)N(Cc2ccc(F)cc2)C[C@H]1C | ? | ?
O=C(c1cc2ccccn2n1)N1CCN(c2ccccn2)CC1 | -2% | -5%
CNC(=O)c1cccn1-c1ccsc1C(=O)OC | -8% | -11%
COc1cc2c(NC3CCN(C)CC3)nc(N3CCCN(C)CC3)nc2cc1OCCCCCCN(C)C | 7.1µM* | 5µM*
COc1ccc(C(=O)NCC(=O)N/N=C/C(C)=C/c2ccco2)cc1OC | ? | ?
COc1ccc(C)cc1N1C(=O)[C@@H]2C[C@H]1CN2Cc1cccc(OC)c1O | -4% | -8%
CCCCOc1ccccc1-c1cc(C(=O)O)[nH]n1 | 4% | /
CN1CCN(C(=S)Nc2cc(S(=O)(=O)N3CCOCC3)ccc2Cl)CC1 | -2% | -16%
CCOC(=O)C(Cc1c[nH]c2ccccc12)NC(=O)COc1ccc(CC)cc1 (centres undefined) | 1% | -5%
CCOC(=O)N1CCC2(CC1)C(C#N)=C(N)Oc1n[nH]c(C)c12 | 2% | /
O=C1NCCc2c1[nH]c1ccccc21 | -16% | -14%
Cc1ccc(-c2noc(CSc3nnc(C)n3-c3ccc(C)cc3)n2)cc1 | -13%[7.34 µM] | -4%[7.34 µM]
CC1CCN(CCOCCOc2ccc(Br)cc2Cl)CC1 | ? | -7%
CCCCN(C=O)c1c(CC)nc2ccc(C(=O)NCCc3c[nH]c4ccccc34)cn12 | -10% | i
Cc1ccc(-n2nnnc2SCC(=O)Nc2ccc3c(c2)OCCO3)cc1C | -20% | /
O=C(c1ccco1)N1CCN(C(=O)c2cccs2)CC1 | 1% | -2%
C=CCOc1cccc(C2/C(=C(\O)c3ccc4c(c3)OCCO4)C(=O)C(=O)N2CCN2CCOCC2)c1 (centres undefined) | -2% | i
O=C(Nc1ccncc1)Nc1ccncc1 | 3% | -2%
CCCCN=C[C@]12CCC(O)CC1(O)CCC1[C@@H]2CC[C@]2(C)[C@H](C3C=CC(=O)O3)CCC12O (some centres undefined) | 0.32µM* | 0.32µM*
O=C1CC2CC1C(C(=O)O)C2C(=O)O (centres undefined) | 3% | i
Oc1ccc(-c2cccc(-c3ccc(O)cc3)n2)cc1 | -17% | -21%
COc1cccc(CNS(=O)(=O)c2ccc(N3CCCC3=O)cc2)c1 | -29% | -16%
CC(C)N(Cc1cc2ccccc2[nH]c1=O)C(=O)c1ccco1 | 1% | 1%
CC(=O)c1ccc(NS(=O)(=O)Cc2ccccc2)cc1 | -16% | -6%
c1coc(CN=C2NC(=NCc3ccco3)c3ccccc32)c1 | -26% | i
Nc1nnc(COc2ccccc2)s1 | -15% | /
Cc1ccc(C(C)C)c(OCC(=O)Nc2ccc(Cl)cn2)c1 | -19% | -2%
COc1ccc2c(c1)Cc1sc(NC(=O)c3ccco3)nc1-2 | -17% | -23%
O=C1OCCN1c1c(-c2ccccc2)c(-c2cccs2)nc2c(-c3ccccc3)cccc12 | -22% | -14%

No new results follow: an excerpt of the list.
SMILES | Vaccinia Venus | VACV mCherry inh
CC(=O)c1ccc(NS(=O)(=O)Cc2ccccc2)cc1 | -16% | -6%
c1coc(CN=C2NC(=NCc3ccco3)c3ccccc32)c1 | -26% | i
Nc1nnc(COc2ccccc2)s1 | -15% | /
Cc1ccc(C(C)C)c(OCC(=O)Nc2ccc(Cl)cn2)c1 | -19% | -2%
COc1ccc2c(c1)Cc1sc(NC(=O)c3ccco3)nc1-2 | -17% | -23%
O=C1OCCN1c1c(-c2ccccc2)c(-c2cccs2)nc2c(-c3ccccc3)cccc12 | -22% | -14%

Assay outcomes as filed in PubChem BioAssay.
